# Rango complex inh: Rango-importin beta binding inhibition. 340,000 compounds, 0.031% hits. Rango CFP/YFP FRET sensor + importin beta, 45 min. Q14974. Potency, µM (series often up to 92.2 µM), for inactives: top-dose inhibition of complex formation; active = rising FRET ratio curve, often small or poorly fitted; inconclusive = mostly compound fluorescence or quenching in the first reads; inactive = flat curves in all reads;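 note: potency is the fitted concentration of half-maximal effect; 0% = DMSO wells and 100% = buffer wells lacking importin beta; nearly all actives have a fitted effect of over 15% in size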
# Target sequence (Q14974 whole entry, looked up): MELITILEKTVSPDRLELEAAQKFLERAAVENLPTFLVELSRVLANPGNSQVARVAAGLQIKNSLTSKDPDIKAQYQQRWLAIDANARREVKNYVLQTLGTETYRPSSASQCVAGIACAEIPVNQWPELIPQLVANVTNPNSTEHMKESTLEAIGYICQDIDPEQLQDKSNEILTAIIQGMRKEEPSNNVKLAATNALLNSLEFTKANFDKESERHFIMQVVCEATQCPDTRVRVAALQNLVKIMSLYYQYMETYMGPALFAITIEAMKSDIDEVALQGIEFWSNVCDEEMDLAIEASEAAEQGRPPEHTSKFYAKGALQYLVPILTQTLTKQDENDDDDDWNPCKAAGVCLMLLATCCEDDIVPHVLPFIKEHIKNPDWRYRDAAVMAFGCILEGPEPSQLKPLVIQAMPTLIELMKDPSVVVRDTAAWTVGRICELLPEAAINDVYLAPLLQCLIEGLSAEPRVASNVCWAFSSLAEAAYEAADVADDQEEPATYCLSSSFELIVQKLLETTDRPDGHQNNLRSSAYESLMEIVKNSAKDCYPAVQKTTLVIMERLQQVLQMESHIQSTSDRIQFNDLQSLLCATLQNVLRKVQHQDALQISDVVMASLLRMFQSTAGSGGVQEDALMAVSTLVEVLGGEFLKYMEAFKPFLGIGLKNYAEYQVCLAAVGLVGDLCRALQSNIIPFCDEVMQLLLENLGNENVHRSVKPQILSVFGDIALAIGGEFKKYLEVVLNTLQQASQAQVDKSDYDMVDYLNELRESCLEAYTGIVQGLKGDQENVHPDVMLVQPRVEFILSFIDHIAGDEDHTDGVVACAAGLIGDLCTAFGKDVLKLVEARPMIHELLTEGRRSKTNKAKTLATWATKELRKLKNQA
#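 FRET biosensor (snurportin 1 IBB flanked by EYFP and cerulean), 50 nM, with compound 5 min, then 0.125 microM importin beta in PBS, 1 mM DTT, 0.02% Tween-20, 0.1% BSA. CFP/YFP ratio read after 45 min at room temperature; pre-read flags interference.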
# Rango release inh: prevents RanGTP from dissociating the Rango-importin beta complex | Biochemical FRET Rango-importin beta, RanGTP-induced dissociation | AID 540253 | Potency, µM (top dose mostly 46.1 µM), without a hit: top-dose activity change, negative = inhibition | O95149+P62826 | 340,000 compounds, 0.071% hits; active means falling FRET ratio curve, often poorly fitted, with flat reads before Ran was added; inconclusive means other falling curves, or compound fluorescence or quenching; inactive means flat or rising ratio curve;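 note: potency is the fitted concentration of half-maximal effect; % of control where 0% means no effect; nearly all actives have a fitted effect of over 45% in size; -100% = wells without RanGTP and RCC1; the record marks most hits as doubtful in a second field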
#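 Compounds sat 5 min at room temperature with 0.1 uM Rango biosensor plus 0.25 uM importin beta, then FRET pre-read. RanGTP-RCC1 (0.6 uM Ran, 2mM GTP, 0.2 uM RCC1) added for 45 min, and the CFP/YFP post-read measured blocked complex dissociation.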
# miR-21 FLuc: raises the signal of a miR-21 reporter. 340,000 tested, under 10 active. Potency, µM (top dose mostly 38.3 µM), without a hit: at the highest dose reporter change, positive = more light. AID 2288. HeLa miR-21 FLuc reporter, luciferase, 48 h; active = well fitted rising curve with a large enough effect; inconclusive = small, poorly fitted or top-dose-only effect; inactive = no such curve, though single readings can be large or run the other way;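 note: % of control where 0% means no effect; miR-21 action dims this reporter so a rising signal means less miR-21 action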
#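 HeLa cells endogenously expressing miR-21, stably carrying CMV-driven firefly luciferase with a downstream miR-21 binding site, 2000 cells/well. Titrations up to approximately 40 uM, 48 hours; luciferase luminescence read.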
# GLA inh pH 4.5: alpha-galactosidase A (human) inhibition, pH 4.5 | P06280 | purified enzyme, 4-MU-alpha-Gal fluorescence, pH 4.5 | activity change, negative = inhibition, % at 105 µM | 230,000 tested, under 10 active; inconclusive = small, poorly fitted or top-dose-only inhibition, or a rising curve; inactive = flat fitted curve, though single readings scatter; no compound was filed as active;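 note: 0% = full activity with enzyme and -100% = basal without enzyme; dose as in the result columns while the protocol names 77 µM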
# * marks the source's active call; other numbers are inactive results; ? = inconclusive; . = not tested or not shown; & = joins results of further samples. Only part of the results is shown; the hit share may differ from the screen's.
SMILES,Rango complex inh,Rango release inh,miR-21 FLuc,GLA inh pH 4.5
O=C(CN1C(=O)c2cccnc2Oc2ccc(Cl)cc21)Nc1ccc(F)cc1,-2.0%,1%,0%,.
CCOCCCNC(=O)CCS(=O)(=O)Cc1ccc(C)cc1,0.5%,-4%,-2%,6
Cc1cc(/C=C(\C#N)C(=O)Nc2ccc(Cl)cc2)c(C)n1-c1ccc(N2CCOCC2)c([N+](=O)[O-])c1,-3.5%,0%,1%,-1
Cc1ccc(-n2cc(S(=O)(=O)c3ccc(C)cc3)[nH]c2=O)cc1,-0.4%,-14%,-6%,-20
CCN(CC)C(=O)CSc1nc(Cc2ccccc2)nc2ccccc12,2.3%,0%,-4%,.
Cc1cc(C)cc(OCC(=O)OCC(=O)c2cc(C)n(C3CC3)c2C)c1,-5.0%,5%,0%,.
O=C(O)c1ccc(Nc2ncnc3scc(-c4ccccc4)c23)cc1,-0.2%,-1%,-10%&-11%,0
CCOc1ccccc1NC(=O)Cn1nc(-c2ccco2)ccc1=O,3.2%,10%,-3%,.
CC1CN(C(=S)Nc2ccc(S(N)(=O)=O)cc2)CC(C)O1 (centres undefined),2.2%,-11%,-1%,.
CCC1(C)N([O-])C(C)=C(c2ccccc2)[N+]1=O (centres undefined),0.6%,-7%,-5%,-6
Cc1c(C)c2c(OCC(=O)O)cc3c(c2oc1=O)CCC(C)(C)O3,-2.0%,-11%,-7%,.
CCN(CC)CCn1c(SCC(=O)NCCC2=CCCCC2)nc2c(sc3ccccc32)c1=O,0.8%,1%,-4%,1
COc1ccc2nc3ccccc3nc2c1NC(=O)c1ccccc1Cl,?,6%,3%,2
CC(=O)/C(=N\Nc1ccc(C)cc1)N1CCOCC1,1.2%,1%,-6%,-3
Cc1cc(C(=O)COC(=O)c2ccncc2)c(C)n1Cc1ccco1,5.9%,-7%,-11%,-3
CC1=C(C(=O)OCc2ccccc2)C(c2ccc3ccccc3c2)NC(=O)N1CCCC(=O)O (centres undefined),-1.2%,?,-5%,.
COc1ccccc1CNC(=O)CN(C)CC(=O)Nc1ccc(F)c(F)c1F,0.1%,19%,.,.
COc1ccc(CNS(=O)(=O)c2ccccc2Br)cc1,.,.,-8%,-6
O=C(CSc1ccc2nnc(CCNC(=O)c3ccccc3)n2n1)NCc1ccccc1,-1.4%,-13%,-5%,.
CCOC(=O)C1(CCOc2ccccc2)CCN(Cc2cccc(OC)c2OC)CC1,?,?,22%,.
O=C(CCC1CCCN(C(=O)c2ccccc2Cl)C1)N1CCN(c2ccccn2)CC1 (centres undefined),-0.6%,9%,19%,.
Brc1ccc(-c2csc(NNC3=NCCCCC3)n2)cc1,-2.3%,-4%,-19%,-11
C=CCNC(=O)C1CC(=O)N(c2ccc(OCc3ccccc3Cl)cc2)C1 (centres undefined),1.9%,-1%,-55%,.
COC(=O)C1CCN(C(=O)C2CCC(=O)N(CCc3cccc(F)c3)C2)CC1 (centres undefined),1.8%,-10%,-5%,.
Cc1ccccc1NC(=S)N(CCCN1CCOCC1)Cc1ccccn1,0.4%,13%,-10%,1
Cc1csc(NC(=O)c2sccc2C)n1,-4.6%,5%,-34%,.
c1ccc2c(c1)CCc1c-2nc2ccccc2c1N1CCOCC1,?,?,6%,-15
O=C(NCCCN=C1NS(=O)(=O)c2ccccc21)c1ccc(S(=O)(=O)N2CCCCC2)cc1,6.9%,27%,?,-2
COC(=O)N/N=C/c1ccc(/C=N/NC(=O)OC)cc1,-0.5%,14%,-1%,-3
CCCc1nnc(NC(=O)c2cccc(OC)c2)s1,-2.8%,-2%,-37%,7
COc1ccc(CNC(=O)CN(C(=O)c2csnn2)c2cccc3ccccc23)cc1,2.6%,2%,5%,.
COc1ccc(-c2nc3oc4cc(OC)ccc4c(=O)c3c(=O)n2Cc2ccco2)cc1,0.0%,-1%,1%,-10
O=C(Nc1nc2ccccc2s1)C1CC(=O)N(c2ccc(Cl)cc2)C1 (centres undefined),0.5%,-8%,6%,4
CCOCCCNC(=O)C1CCN(S(=O)(=O)c2cc(Br)cc3c2N(C(=O)CC)CC3)CC1,-0.1%,14%,-2%,.
COc1ccccc1C1CCN(C(=O)c2ccccc2)CC1,3.5%,4%,-2%,.
COc1ccc(S(=O)(=O)NC(C)C(=O)O)cc1 (centres undefined),0.8%,-3%,0%,1
C=CCN1C(=O)c2ccc(C(=O)Nc3ccccn3)cc2C1=O,0.7%,2%,.,.
COc1cc(C(=O)NCc2nnc(SCC(=O)N3CCc4ccccc43)o2)cc(OC)c1OC,-1.5%,1%,-1%,-1
CC/C(C)=N/NC(=O)c1[nH]c2ccc(C)cc2c1-c1ccccc1,4.3%,-17%,21%,3
CC(=O)c1ccc(S(=O)(=O)Nc2ccc(C(=O)N(C)CC(=O)Nc3cccc(C)c3C)cc2)cc1,-0.5%,-3%,.,.
COc1ccc(-c2ccc(-c3cc(=O)oc4c(C(C)C)ccc(C)c34)cc2)cc1,3.3%,1%,.,-3
CCCOc1ccc2c(CC)cc(=O)oc2c1C,1.1%,?,-33%,2
CSCCC(NC(=O)c1ccc(Cl)cc1Cl)C(=O)N1CCN(C(=O)c2ccccc2)CC1 (centres undefined),2.0%,2%,.,.
O=C(NCC(=O)N1CCN(c2ccc([N+](=O)[O-])cc2)CC1)c1ccco1,-2.9%,-30%,.,.
CCOc1ccc(CN(C)C(=O)CNC(=O)c2ccccc2)cc1,9.6%,9%,-4%,.
Cc1csc(NS(=O)(=O)c2ccc(Cl)cc2)n1,3.5%,-3%,-1%,.
COc1cc(C(=O)OCCCN(C)C)cc(OC)c1OC,-1.7%,3%,-3%,2
Cc1cc(NC(=O)c2ccc([N+](=O)[O-])cc2)no1,-2.1%,-1%,-14%,.
Cc1ccc(NC(=O)CN(C)C(=O)COC(=O)C(C)(C)Oc2ccc(Cl)cc2)cc1,1.8%,3%,3%,.
Cc1cc(CN(C)C(=O)c2cc(COc3ccc4ncccc4c3)on2)on1,-0.2%,-6%,11%,2
Oc1ccc(N=Cc2cc(Br)c(N3CCOCC3)o2)cc1,-2.3%,?,-2%,-5
C=CCn1c(SCC(=O)Nc2c(C)n(C)n(-c3ccccc3)c2=O)nc2sc(C)c(-c3ccccc3)c2c1=O,4.3%,4%,20%,-3
COC(=O)CN(Cc1ccco1)S(=O)(=O)c1ccccc1,-3.7%,17%,-8%,0
CCOC(=O)N1CCC(NC(=O)c2ccc3c(c2)sc2nc(-c4ccccc4)cn23)CC1,-2.5%,-7%,13%,-4
COCc1cc(C)nc2sc3c(=O)oc(C)nc3c12,3.7%,-7%,-4%,9
O=c1[nH]c2sc3c(c2c2nncn12)CCCC3,0.9%,-5%,-2%,2
CC1CC(C)CN(CCCNC(=O)c2ccc3c(c2)NC(=O)C(N2CCCCC2)S3)C1 (centres undefined),2.1%,3%,-4%,0
O=S(=O)(c1cc(Cl)ccc1Cl)n1cccn1,5.1%,8%,-13%,6
COc1cc2oc(=O)ccc2cc1[C@@H](O)[C@@H]1OC(C)(C)OC1(C)C,5.5%,-13%,.,.
CC(=O)Nc1ccc(NC(=O)CCCc2c[nH]c3ccccc23)cc1,3.7%,8%,-8%,7
# Later entries:
SMILES,Rango complex inh,Rango release inh,miR-21 FLuc,GLA inh pH 4.5
CCOc1ccc(C2c3c(oc4ccccc4c3=O)C(=O)N2CCCN2CCOCC2)cc1OCC (centres undefined),-0.3%,7%,-11%,-4
COc1ccc(C(=O)OCn2nnc3ccccc3c2=O)cc1OC,-3.6%,3%,-3%,4
CC1CCCCC12NC(=O)N(CC(=O)Nc1ccccc1F)C2=O (centres undefined),0.2%,17%,.,.
O=C(CCCc1nc2ccccc2s1)NCc1cccnc1,1.0%,1%,-2%,1
COC(=O)C1CCN(c2cc(=O)n(-c3ccc(OC)cc3)c(=O)[nH]2)CC1,-0.1%,-9%,-1%,-15
CCC1(c2ccc(OC)cc2)NC(=O)N(CC(=O)N2CCc3ccccc32)C1=O (centres undefined),-1.1%,-3%,.,.
Cc1nc2ccc([N+](=O)[O-])cc2c(=O)n1Cc1cccc(F)c1,2.3%,-13%,-3%,.
CC(C)CCNC(=O)Cn1cc2c(n1)CCCCC2,2.3%,13%,-10%,-15
COCCOc1cnn(-c2cc(Oc3ccc(C)cc3)ncn2)c(=O)c1Cl,1.0%,-8%,-3%,4
Cc1ccc(Cl)cc1NC(=S)NCc1cccn1C,-2.7%,-2%,-9%,-8
COc1ccccc1CNS(=O)(=O)c1cc(C(=O)NCC2CCCO2)c(Cl)cc1Cl (centres undefined),0.3%,13%,.,.
NNC(=O)c1ccc(O)cc1O,-3.0%,-19%,-38%,-8
Cc1cccc(COc2ccc(/C=N/NC(=O)c3nnn(-c4nonc4N)c3COc3ccc(F)cc3)cc2)c1,-0.4%,-10%,-11%,3
COCc1cc(=O)oc2cc(NC(=O)c3ccc(C(C)(C)C)cc3)ccc12,0.7%,11%,0%,.
CNCCCOc1ccc(C)cc1OC,2.2%,-5%,-1%,3
COc1cc(/C=C(\C#N)C(=O)Nc2ccc(C(=O)O)cc2)ccc1OC(=O)c1cccc(F)c1,?,?,1%,.
COc1ccccc1/C=C/C(=O)OC(C)CN1CCOCC1 (centres undefined),-3.4%,17%,-8%,1
CCC(=O)Nc1nnc(S(=O)(=O)N(C)Cc2ccco2)s1,0.8%,1%,0%,.
O=c1/c(=C\c2cccc(O)c2)sc2nc(-c3ccccc3)c(-c3ccccc3)n12,-0.7%,20%,-3%,0
CC(C)N(CCNC(=O)c1oc(=O)c2ccccc2c1-c1ccccc1)Cc1ccco1,?,1%,1%,-18
CCn1c(CNC(=O)COc2ccc(C(C)C)cc2)nnc1SCC(=O)NC1CCCCC1C (centres undefined),0.3%,3%,-7%,2
COc1ccc(C2/C=C\CN(C(=O)CC(C)C)CC(=O)N2Cc2ccc(F)cc2)cc1 (centres undefined),2.9%,-8%,0%,4
O=C(c1cc(S(=O)(=O)Nc2ccccc2F)c(Cl)cc1Cl)N1CCN(CCO)CC1,0.0%,2%,-1%,-15
Cc1ccc(C(=O)OCC(=O)NCCN2C(=O)CSC2=O)cc1,-3.8%,-2%,-17%,-1
O=C(NNC(=O)C1COc2ccccc2O1)c1ccccc1O (centres undefined),-4.3%,-13%,.,.
COc1ccccc1N1CCN(S(=O)(=O)c2c(C)[nH]c(C)c2C(=O)N2CCCC2)CC1,?,0%,-2%,.
N#CCc1ccc(NS(=O)(=O)c2cccs2)cc1,-3.7%,1%,-3%,0
CSc1nsc(SC)c1NC(=O)Nc1ccccn1,-0.7%,-2%,-16%,9
O=C(O)c1cc(-c2ccc(/C=N/Nc3ccc(Cl)cc3)o2)ccc1Cl,?,?,-2%,5
COC(=O)c1ccn(CC(=O)NC2CCCCC2)n1,0.1%,-23%,0%,.
Cc1cn(C2CC3OCC3O2)c(=O)[nH]c1=O (centres undefined),-2.4%,-1%,-7%,7
CCc1nc2c(sc3nc4c(cc32)COC(C)(C)C4)c(=O)n1CCN(CC)CC,2.5%,-3%,-3%,9
Cc1ccc(N2CC(C(=O)Nc3nnc(SCCN4CCOCC4)s3)CC2=O)cc1 (centres undefined),3.4%,0%,-2%,.

# 4 entries from above, set out differently.
O=C(c1cc(S(=O)(=O)Nc2ccccc2F)c(Cl)cc1Cl)N1CCN(CCO)CC1
  Rango complex inh = 0.0%	Rango release inh = 2%	miR-21 FLuc = -1%	GLA inh pH 4.5 = -15
Cc1ccc(C(=O)OCC(=O)NCCN2C(=O)CSC2=O)cc1
  Rango complex inh = -3.8%	Rango release inh = -2%	miR-21 FLuc = -17%	GLA inh pH 4.5 = -1
O=C(NNC(=O)C1COc2ccccc2O1)c1ccccc1O (centres undefined)
  Rango complex inh = -4.3%	Rango release inh = -13%	miR-21 FLuc = .	GLA inh pH 4.5 = .
COc1ccccc1N1CCN(S(=O)(=O)c2c(C)[nH]c(C)c2C(=O)N2CCCC2)CC1
  Rango complex inh = ?	Rango release inh = 0%	miR-21 FLuc = -2%	GLA inh pH 4.5 = .

# Source: PubChem
